MT1-MMP act inh = inhibitors of human MT1-MMP activation; P50281; HT1080 RFP-PRO-GFP cells, GFP/RFP ratio fluorescence, overnight; percent of plate control window, DMSO zero; GFP/RFP ratio change, % at 20 µM; 360,000 compounds, 0.061% hits; AID 651647;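 active means GFP/RFP ratio change of at least 30% with cell ATP level not reduced by more than half and red fluorescence within 50% of control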; further: strong numbers were not always called active
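system = RFP-PRO-GFP reporter HT1080 cells | dosing = 20 µM single dose, 1% DMSO | timing = overnight cell settling, then overnight compound exposure, 37 °C, 5% CO2 | read-out basis = GFP/RFP fluorescence ratio | controls = DMSO and RFP-L50D-GFP cell wells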
HIV Env fusion = blocks HIV Env-driven cell-cell fusion. HeLa-JRFL Env/CEM21 cell fusion, luciferase. inhibition, % at 12.3 µM. 360,000 compounds, 1.1% hits. AID 651610;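 active means mean replicate inhibition score of at least 50 and every replicate individually at or above 50; inconclusive means only one of the two criteria met; inactive means mean below 50 and not all replicates reaching 50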;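 further: 0% = plate neutral controls and 100% = maraviroc near 300 nM; one replicate is shown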
eIF4H inh = inhibitors of RNA binding by human eIF4H | inhibition, % at 35 µM | AID 2012 | 290,000 compounds, 0.94% hits | eIF4H fluorescence polarization binding assay;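 active means 50% or more with normal probe brightness, or confirmed in later tests; inconclusive means above 50% with abnormal brightness, or retests that disagree; inactive means below 50% or failed in later tests; about a fifth of its hits are not listed in these tables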;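 further: calls also rest on retests at 20 µM and on dose response follow-up; 0% = protein and probe with vehicle and 100% = probe without protein; strong numbers were not always called active; many hits fall short of the cut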
Rce1 inh = blocks yeast Ras-converting enzyme; yeast membranes, quenched prenylated peptide cleavage fluorescence; AID 2563; calls only; Q03530; 290,000 compounds, 0.27% hits;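 active means fall in fluorescence gain of 50% or more versus controls, with final raw signal at or below 3038400; inconclusive means same 50% fall but final raw signal above 3038400; inactive means fall in fluorescence gain under 50%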;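 further: plate controls were neutral control wells for no effect and wells lacking membranes for full effect; tested at 10 µM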
Target sequence (Q03530 whole entry, looked up): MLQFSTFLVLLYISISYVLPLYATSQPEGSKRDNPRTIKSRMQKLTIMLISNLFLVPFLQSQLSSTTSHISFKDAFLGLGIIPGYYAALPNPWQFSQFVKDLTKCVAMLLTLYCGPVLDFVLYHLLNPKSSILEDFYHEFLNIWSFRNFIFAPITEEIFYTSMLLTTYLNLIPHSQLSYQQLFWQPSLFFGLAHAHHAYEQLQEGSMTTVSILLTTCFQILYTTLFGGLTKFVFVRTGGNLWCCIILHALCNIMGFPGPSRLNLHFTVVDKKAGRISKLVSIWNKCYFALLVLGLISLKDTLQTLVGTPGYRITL
UUG fidelity = yeast start codon fidelity modulation | S. cerevisiae UUG-firefly luciferase reporter, luminescence/redox ratio | activity score, % at 18.7 µM | 350,000 compounds, 0.13% hits | AID 602363;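 active means replicate mean at a twofold rise or more, about +100% in these data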;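 further: firefly luciferase made from a UUG start codon reports start codon fidelity; reporter light over untreated wells divided by growth signal over untreated wells; some hits fall short of that in this replicate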
CSC inhib = cancer stem cell inhibition; 300,000 compounds, 1.1% hits; AID 2717; inhibition, % at 7.5 µM; cancer stem cell-like cells viability, luminescence;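 active means mean at 75% or more and at least half the replicates too; inconclusive means mean and replicates disagree; tested in HMLE shEcad cells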;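 further: 0% = median of negative and 100% = median of positive control wells; the first replicate is given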
PABP polyA inh = blocks human PABP binding to poly(A) RNA; inhibition, % at 35 µM; P11940; 290,000 compounds, 1% hits; fluorescence polarization; AID 2014;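 active means 50% or more with normal probe brightness, or confirmed in later tests; inconclusive means above 50% with abnormal brightness, or retests that disagree; inactive means below 50% or failed in later tests; about a fifth of its hits are not listed in these tables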;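 further: calls also rest on retests at 20 µM and on dose response follow-up; controls were probe without protein and protein plus probe with vehicle; some compounds called inactive have numbers as strong as hits; many hits fall short of the cut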
Target sequence (P11940 whole entry, looked up): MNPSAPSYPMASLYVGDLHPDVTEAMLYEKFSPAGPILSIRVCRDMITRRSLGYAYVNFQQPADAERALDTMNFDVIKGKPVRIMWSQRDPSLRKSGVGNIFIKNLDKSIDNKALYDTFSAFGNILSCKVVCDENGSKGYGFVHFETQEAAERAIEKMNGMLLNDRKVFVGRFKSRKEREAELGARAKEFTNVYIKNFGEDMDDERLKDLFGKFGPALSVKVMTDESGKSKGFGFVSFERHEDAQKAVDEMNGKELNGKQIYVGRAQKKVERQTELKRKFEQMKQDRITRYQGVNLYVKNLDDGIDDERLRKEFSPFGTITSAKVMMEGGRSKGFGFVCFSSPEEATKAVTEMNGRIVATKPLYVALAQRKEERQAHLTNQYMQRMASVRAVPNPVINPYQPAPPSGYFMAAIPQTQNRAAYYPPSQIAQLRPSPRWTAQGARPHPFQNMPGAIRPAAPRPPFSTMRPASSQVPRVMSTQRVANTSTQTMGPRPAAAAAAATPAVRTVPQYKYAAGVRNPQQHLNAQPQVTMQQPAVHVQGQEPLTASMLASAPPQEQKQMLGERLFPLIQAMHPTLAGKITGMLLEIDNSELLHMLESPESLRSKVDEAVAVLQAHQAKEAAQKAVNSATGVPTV
eIF4H inh retest = second read-out of eIF4H inh, no call of its own (marks repeat the call); inhibition, %; compound at 20 µM; confirmation average;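 mean of two retest wells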
PABP polyA inh retest = recorded beside PABP polyA inh, whose call it bears; inhibition, %; compound at 20 µM; confirmation repeats;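 mean of two retest wells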
MT1-MMP act inh RFP = further read-out of MT1-MMP act inh, marked with its call; RFP signal change, %; measured here: RFP expression control read;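 0 = vehicle wells; hits needed this value within 50% of zero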
Active calls of the source: *; i = inactive; ? = inconclusive; · = not tested or not shown; & = joins results of further samples.

SMILES	MT1-MMP act inh	MT1-MMP act inh RFP	HIV Env fusion	eIF4H inh	Rce1 inh	UUG fidelity	CSC inhib	PABP polyA inh	others
CC(C)C[C@H](NC(=O)c1nc[nH]c1C(=O)N[C@@H](CCCCNC(=O)OC(C)(C)C)C(=O)OC(C)(C)C)C(=O)OC(C)(C)C	-42	-34	26	18	i	8	60	9
CC(C)C(=O)N=C1SC2CS(=O)(=O)CC2N1Cc1ccccc1 (stereo not drawn)	-1	-3	-5	-8	i	-15	-7	-5
O=C(NCCN1CCOCC1)c1ccc(Cl)c(S(=O)(=O)N2CCCC2)c1	-2	-2	-6	-5	i	-14	1	2
C/C(CC(=O)Nc1ccc(OCc2ccccc2)cc1)=N\NC(=O)C(=O)Nc1ccccc1C	8	-4	·	-1	i	-5	-9	3
COc1ccc(-n2nc(C(=O)NCC3CCCO3)c3ccccc3c2=O)cc1 (stereo not drawn)	1	-2	-6	-10	i	-2	6	-1
CC(=O)c1ccc(NC(=O)C(C)N(C)CC(=O)Nc2ccccc2Cl)cc1 (stereo not drawn)	1	1	4	-3	i	·	-8	-8
COc1ccccc1/C=C/C=N/NC(=O)c1cnccn1	-1	1	-12	-1	i	·	-1	-7
CCOc1ccc(CO[C@@H]2O[C@H](CO)[C@@H](O)[C@H](O)[C@H]2NC(C)=O)cc1OC	-6	-2	-7	0	i	-21	-3	-2
COCOc1cccc(CN2CCC2(C)C(=O)NCCNC(C)=O)c1 (stereo not drawn)	-3	1	12	·	·	5	·	·
O=C(COc1ccccc1)Nc1cc2c3c(c1)CC(=O)N3CCC2	-1	3	-20	·	i	14	0	·
COc1cc(OC)cc(C(=O)NNC(=O)c2ccc3ccccc3n2)c1	6	-1	7	·	·	-8	·	·
CC(C)(C)c1ccc(/C=C(\C#N)C(=O)NCCN2CCOCC2)cc1	-4	-3	12	-4	i	·	0	-2
CCCc1nnc(SCC(=O)Nc2ccc(OC)cc2)n1N	0	-1	-7	1	i	·	-8	2
O=C(c1ccncc1)N1CCN(c2ccc(F)cc2)CC1	6	5	·	7	i	-12	-24	1
CC1CCc2nn(CC(=O)NCCN3CCCCC3C)cc2C1 (stereo not drawn)	-1	6	-14	-8	i	-4	·	5
O=C(N/N=C/c1ccncc1)c1ccc2c(c1)OCO2	-6	-2	9	1	i	-18	1	-10
O=C1C=C(c2cc(Cl)cc(Cl)c2)C[C@@H](c2ccc(F)cc2)C1	1	0	-3	·	·	-8	27	·
O=C(NCc1cccnc1)C(=O)NCC1OCCN1S(=O)(=O)c1ccc(F)cc1 (stereo not drawn)	-2	6	-5	4	i	0	20	14
COc1ccc(NC(=O)NC2(C(=O)N3CCCCC3)CCCCC2)cc1	2	6	0	-4	i	-5	10	5
CCCCCc1cc(=O)oc2c(C(CCN3CCCC(C)C3)c3ccc(OC)cc3)c(OC)cc(OC)c12 (stereo not drawn)	-3	-7	10	-24	i	-2	102*	-22
O=C(O)C1Cc2ccccc2CN1C(=O)COc1ccc(Cl)cc1 (stereo not drawn)	-2	5	8	37	i	-9	-7	-3
Cc1ccc(N(C(=O)Cn2nnc3ccccc32)C(C(=O)NCc2ccco2)c2ccc(C)o2)cc1 (stereo not drawn)	-3	2	·	-4	i	2	·	-2
O=C(CNS(=O)(=O)c1cccc(Br)c1)NCCCc1ccccc1	-2	2	2	0	i	4	2	8
O=C(CCN1C(=O)c2ccccc2C1=O)N1CCN(C2c3ccccc3-c3ccccc32)CC1	-3	-1	·	-6	i	-10	-12	3
CCN1CCN(c2cc3c(nn2)Oc2ccccc2N3C)CC1	4	1	-8	21	i	·	-6	8
CCCCc1c(C)[nH]c2nc3ccccc3n2c1=O	1	3	-37	-2	i	-16	-21	-7
O=C(c1ccc(Cl)c(S(=O)(=O)N2CCOCC2)c1)N1CCCC1	3	3	-4	-2	i	-14	-7	-1
c1ccc(-c2csc3ncn4nnnc4c23)cc1	-4	-1	-2	0	i	-20	-11	-4
CC[C@]12c3[nH]c4ccc(OC)cc4c3CCN1C(=O)C(CC(=O)NCCCOC)C[C@@H]2C(=O)N1CCN(C(=O)C2CC2)CC1 (stereo partly drawn)	4	7	-7	·	·	-26	·	·
O=C(N/N=C/c1ccc(OC(F)F)cc1)c1ccc(CSc2nc3ccccc3[nH]2)cc1	8	5	2	-7	i	·	14	6

The final three records of the section before open the next one.
SMILES	MT1-MMP act inh	MT1-MMP act inh RFP	HIV Env fusion	eIF4H inh	Rce1 inh	UUG fidelity	CSC inhib	PABP polyA inh	others
c1ccc(-c2csc3ncn4nnnc4c23)cc1	-4	-1	-2	0	i	-20	-11	-4
CC[C@]12c3[nH]c4ccc(OC)cc4c3CCN1C(=O)C(CC(=O)NCCCOC)C[C@@H]2C(=O)N1CCN(C(=O)C2CC2)CC1 (stereo partly drawn)	4	7	-7	·	·	-26	·	·
O=C(N/N=C/c1ccc(OC(F)F)cc1)c1ccc(CSc2nc3ccccc3[nH]2)cc1	8	5	2	-7	i	·	14	6
COc1cccc(/C=N/n2c(N)c(S(=O)(=O)c3cccs3)c3nc4ccccc4nc32)c1	2	1	-110	-2	i	0	-5	6
COc1cc2[nH]c(=S)nc(NCCc3ccc(S(N)(=O)=O)cc3)c2cc1OC	2	-6	11	-9	i	·	-3	7
O=C(COC(=O)c1ccccc1-c1ccccc1[N+](=O)[O-])c1ccccc1	-10	-7	·	5	i	·	2	23
COc1ccccc1NC(=O)N(C)C[C@@H]1OCc2cnnn2CCCC(=O)N([C@H](C)CO)C[C@@H]1C	2	6	-26	·	·	-13&5	·	·
N#Cc1c(NC(=O)CCCN2C(=O)c3ccccc3C2=O)oc(-c2ccccc2)c1-c1ccccc1	6	1	·	-5	i	-12	-2	1
O=c1c2ccccc2sn1-c1ccccc1F	1	0	20	·	·	-25	·	·
Oc1ccccc1N1CCN(C(=S)NCc2ccccc2)CC1	1	5	-3	2	i	-26	12	-9
CC1CCCCC1NC(=O)CN1C(=O)NC(C)(c2ccc(OC(F)F)cc2)C1=O (stereo not drawn)	10	1	-31	1	i	·	-22	-2
CCOc1ccc(NC(=O)c2ccc(F)c(S(=O)(=O)N3CCCC3)c2)cc1	-8	-23	14	·	·	-18	·	·
O=C(Cc1ccccc1)Nc1nc2ccccc2[nH]1	3	-1	·	7	i	-15	-9	-11
O=C(/C=C/c1ccccc1)Nc1ccc(Br)cn1	-9	-14	i	-2	·	·	60	1
Cc1ccccc1NC(=O)CSc1ccc(-c2cccnc2)nn1	4	1	0	1	i	-7	-23	52	eIF4H inh retest=-1;PABP polyA inh retest=17
CCOC(=O)c1c(CC(C)C)csc1NC(C)=O	-2	0	·	0	i	-12	-4	-2
CCC(=O)Nc1sc(C(=O)Nc2ccccc2F)c(C)c1C(=O)OC	5	-3	-79	-2	i	·	21	-9
O=C(COC(=O)Cn1cnc2ccccc2c1=O)NCc1ccccc1	-1	-2	-20	·	·	-2	·	·
CC(C)(C)OC(=O)N[C@@H](Cc1ccccc1)C(=O)N[C@@H](CO)[C@H](O)[C@@H]1C[C@@H]1C(=O)N1CCCC1	4	0	-43	-3	i	-6	16	5
COCc1cc(C)nc(SCC(=O)Nc2nc(C)cs2)c1C#N	3	0	-90	-1	i	-12	24	13
COc1ccccc1C1(CCNC(C)c2cccs2)CCOC(C(C)C)C1 (stereo not drawn)	-1	0	18	-4	i	-7	-11	2
CCc1nc2c(OCCn3cccc3)cccn2c1N(C=O)Cc1ccccc1	-5	3	-3	·	·	-15	·	·
CCOc1ccccc1NC(=O)C1C2C=CC(O2)C1C(=O)O (stereo not drawn)	2	3	·	2	i	-13	-5	-12
O=C(CCC(=O)c1cccs1)NCc1cccc(Cl)c1	0	3	-32	·	i	-13	7	·
C=CCn1c(SCc2ccc(Cl)cc2)nc2cc(C(=O)N3CCC(C(N)=O)CC3)ccc2c1=O	-3	-14	-4	-13	i	-18	35	54	eIF4H inh retest=-3;PABP polyA inh retest=3
CCOc1cc(/C=N/NC(=O)c2nnn(-c3nonc3N)c2C)ccc1OCc1cccc(F)c1	3	3	-3	·	i	-7	-5	·
CCCOc1ccc(C(=O)C(CN2CCOCC2)c2ccccc2)cc1 (stereo not drawn)	-18	-14	·	-1	i	3	6	3
COC(=O)C1N[C@@H]([C@@H](NC(=O)COc2ccccc2)C(=O)NC2CC2)SC1(C)C (stereo partly drawn)	3	6	-13	·	i	3	0	·
Cc1ccc(S(=O)(=O)NC(CC(N)=O)C(=O)O)cc1 (stereo not drawn)	-2	3	·	-7	i	-11	-6	8
COCCCN=CC1=C(O)CC(C)(C)CC1=O	2	3	21	5	i	-18	6	-5
CCOC(=O)c1c(NC(=O)CN2C(=O)CN(C)C2=O)sc(C)c1C	0	3	-3	-4	i	·	·	-19
CS(=O)(=O)Nc1ccc(N2CCN(c3ccc(C(F)(F)F)cn3)CC2)nc1	-11	-27	8	1	i	-3	4	-5
Cc1nn(-c2ccc(Cl)cc2Cl)c(C)c1C(=O)O	-1	5	4	-5	i	-5	-24	-1
CC(Cl)C(=O)N1c2ccccc2CCc2ccccc21 (stereo not drawn)	-4	0	10	4	i	-18	-12	-1
CN(C)S(=O)(=O)c1cc(NC(=O)COC(=O)Cc2ccc(Cl)cc2Cl)ccc1Cl	3	7	-26	-1	i	·	-19	-7
COC(=O)c1cccc(NC(=S)Nc2cccc(Cl)c2C)c1	0	4	1	-1	i	·	·	5
CCOC(=O)c1sc(NC(=O)C(C)Sc2nc(N)cc(=O)[nH]2)nc1C (stereo not drawn)	13	7	6	-6	i	·	-9	-11
Nc1nc(SCC(=O)N2CCCCCC2)[nH]c(=O)c1NC(=O)c1ccco1	-3	5	-4	-3	·	-8	2	-11
CNc1ncnc2c1ncn2[C@@H]1O[C@H](CO)[C@@H](O)[C@H]1O	3	2	15	·	·	-18	-2	·
COc1cccc(C(=O)OCC(=O)NCCCc2ccccc2)c1	-1	1	-6	-2	i	5	-2	1
C=C(C)Cn1c(SCC(=O)O)nnc1-c1ccc(C(C)(C)C)cc1	-1	0	·	-12	i	-9	·	7
CC(CN1CCOCC1)OC(=O)c1ccccc1Br (stereo not drawn)	-3	0	·	5	i	-7	·	15
CCCOc1ccc(CCc2n[nH]c(=S)n2Cc2ccccc2)cc1	3	-4	-31	9	i	-8	17	-3
Cc1cc(=O)[nH]c(SCCc2ccccc2)n1	4	5	?	-8	·	-12	12	1
O=C1CCCN1CCCNC(=S)Nc1ccc(F)c(Cl)c1	-1	0	10	13	i	-28	2	-1
CC(=O)Nc1ccc(NC(=O)CSc2nc3nc(-c4cccs4)cc(C(F)(F)F)c3c(=O)[nH]2)cc1	3	10	-1	27	i	·	-3	14
Cn1c(C(O)c2ccccc2F)nc(Cl)c1Cl (stereo not drawn)	6	7	-48	7	i	8	-3	4
N#C/C(=C\c1ccc([N+](=O)[O-])cc1)c1ccccn1	-3	-5	-77	-1	i	·	6	-2
COc1ccc(/C=C/C(=O)Nc2cc(S(=O)(=O)N3CCOCC3)ccc2OC)cc1	2	0	i	·	·	-2	-13	·
COc1cc2cc(C(c3nnnn3C3CCCC3)N3CCCCC3)c(=O)[nH]c2cc1OC (stereo not drawn)	4	2	24	-8	i	-5	-7	-7
Fc1ccc(-n2c(=S)[nH]c3cccnc32)cc1	3	2	11	3	i	-6	10	14

Screening data: PubChem BioAssay, several laboratories

An excerpt; the hit share may differ from the screen's.
